Screens: PubChem BioAssay, several laboratories
ALR inh: inhibitors of human ALR sulfhydryl oxidase, primary screen, biochemical, H2O2 detection, HRP-luminol luminescence, single point. purified ALR, DTT oxidation. inhibition, % (test concentration not listed). 290,000 compounds, 3.8% hits;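 active = mean and each replicate at 75% or more; inconclusive = only one of the two met; inactive = neither met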;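 note: stock transfer was 7.5 nL into about 7.5 µL; 0% = neutral wells and 100% = wells with inactivated enzyme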
Target sequence (P55789 whole entry, looked up): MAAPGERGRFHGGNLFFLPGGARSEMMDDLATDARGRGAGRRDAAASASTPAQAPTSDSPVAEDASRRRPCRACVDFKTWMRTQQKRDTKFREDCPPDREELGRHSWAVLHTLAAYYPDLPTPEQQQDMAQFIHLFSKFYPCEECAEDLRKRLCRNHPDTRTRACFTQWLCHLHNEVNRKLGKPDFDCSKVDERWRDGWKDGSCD
rRNA inh HTS: reduced GFP signal of wild-type E. coli, primary screen, bacterial rRNA inhibitor project, GFP/RFP fluorescence, OD600, single point. GFP signal change (wild-type ribosome), % (concentration not given with the values). E. coli WT GFP vs humanized-ribosome RFP mutants, 24 h; active compounds read low; DMSO median 0, no signal -100. AID 720706, 2013. 350,000 compounds, 1.6% hits;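 active = significant combined selectivity score with lowered wild-type GFP, culture density cut under 30%, mutant RFP and density less affected; inactive = any of these conditions unmet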; note: one replicate is shown; some compounds called inactive have numbers as strong as hits
HNF4A DNA FP: change in binding of human HNF4A to DNA, primary screen, biochemical, fluorescence polarization, FITC-DNA; Hepatocyte nuclear factor 4-alpha (Homo sapiens), P41235; 1 h; activity change, % at 10 µM; 360,000 compounds, 0.3% hits; in the data active = activity change above about 30%, passing the limit was not always enough;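 note: controls were the assay level and a saturating level of protein; the project sought stronger binding though the title names inhibitors; some compounds called inactive have numbers as strong as hits; positive values seem to mean higher polarization but the record does not say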
Target sequence (P41235 whole entry, looked up): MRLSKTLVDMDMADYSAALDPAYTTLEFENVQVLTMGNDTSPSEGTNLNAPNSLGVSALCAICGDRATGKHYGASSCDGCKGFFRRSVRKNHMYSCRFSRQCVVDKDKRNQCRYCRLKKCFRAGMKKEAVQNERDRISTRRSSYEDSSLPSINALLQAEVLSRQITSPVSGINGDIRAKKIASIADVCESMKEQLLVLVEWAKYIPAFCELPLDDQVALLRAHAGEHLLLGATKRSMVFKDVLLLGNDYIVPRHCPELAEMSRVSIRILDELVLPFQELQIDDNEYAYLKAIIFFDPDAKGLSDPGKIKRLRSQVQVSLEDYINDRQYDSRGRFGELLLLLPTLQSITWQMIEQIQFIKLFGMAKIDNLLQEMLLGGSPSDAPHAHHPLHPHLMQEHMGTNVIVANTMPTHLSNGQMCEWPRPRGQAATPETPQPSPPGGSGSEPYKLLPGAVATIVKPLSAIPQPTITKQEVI
Vif TR-FRET: inhibitors of Vif binding to APOBEC3G peptide, primary screen, biochemical, TR-FRET, GST-Vif 1-94, biotin-A3G peptide, dose response retest (AID 1117319). Virion infectivity factor (Human immunodeficiency virus type 1 group M subtype B (isolate …. TR-FRET GST-Vif / biotin-A3G peptide binding; higher % means a stronger effect; test concentration not given here; strong numbers were not always called active. 260,000 compounds, 0.57% hits. inhibition, %; hits with a dose series show IC50 in µM;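 active = above the screen mean plus three standard deviations and confirmed in dose response; inconclusive = results disagree or hit not tested in dose response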;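 note: Vif residues 1-94 fused to GST binding biotinylated APOBEC3G peptide 110-148; 0% = full assay without inhibitor and 100% = GST in place of GST-Vif; retest series ran down from 100 µM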
FGF22 binding: binders of human FGF22 protein, primary screen, FGF22 synaptogenesis inhibitor project, biophysical, thermal shift, single point. Fibroblast growth factor 22 (Homo sapiens), Q9HCT0. recombinant FGF22 thermal shift, SYPRO orange fluorescence; percent of sucrose octasulfate shift, DMSO zero. calls only at 9.99 µM. 340,000 compounds, 1.5% hits;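 active = melting point raised past a set limit in the mean and every replicate; inconclusive = no clear call; three in four hits are not shown here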
Target sequence (Q9HCT0 whole entry, looked up): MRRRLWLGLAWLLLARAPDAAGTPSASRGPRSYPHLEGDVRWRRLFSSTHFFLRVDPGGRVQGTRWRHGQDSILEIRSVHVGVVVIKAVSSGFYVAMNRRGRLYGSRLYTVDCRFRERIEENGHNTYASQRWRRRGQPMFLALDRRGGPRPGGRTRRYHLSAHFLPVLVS
Ecoli growth: E. coli growth inhibition, primary screen, OD600; Escherichia coli growth, 23 h; active compounds read low; OD600 absorbance (test concentration not listed); 330,000 compounds, 0.21% hits; AID 1053175, 2014;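 active = OD600 absorbance below the run mean of sample wells minus 3.6 SD, in any replicate, cut at about 0.56 in these data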;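 note: stock transfer was 300 nL into about 60 µL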
AF4-AF9 inh: inhibitors of AF4 peptide binding to AF9, primary screen, biochemical, AlphaScreen, biotin-AF4 peptide, FLAG-AF9, single point; 350,000 compounds, 0.47% hits; inhibition, % at 10 µM;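 active = every replicate reaching a set inhibition limit, whatever the replicate mean, cut at about 25% in these data; inconclusive = mean inhibition reaches that limit but some replicates miss it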;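 note: 0% = plate neutral control median and 100% = total signal loss; the record names both 10 and 1 µM as test concentration; the first replicate is given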
rRNA inh HTS OD600: second read-out of rRNA inh HTS, no call of its own (marks repeat the call); OD600 change, %; measured here: OD600 growth;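 optical density of the mix in the first replicate; 0 = DMSO median and -100 = no signal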
rRNA inh HTS RFP: recorded beside rRNA inh HTS, whose call it bears; RFP signal change, %; measured here: RFP humanized mutant strains;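 first replicate; 0 = DMSO median and -100 = no signal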
* marks the source's active call; other numbers are inactive results; i = inactive; ? = inconclusive; . = no result given. The list is partial; rates above refer to the full screens.

Results follow in this order: ALR inh	rRNA inh HTS	rRNA inh HTS OD600	rRNA inh HTS RFP	HNF4A DNA FP	Vif TR-FRET	FGF22 binding	Ecoli growth	AF4-AF9 inh
C[C@H](CO)N1C[C@H](C)[C@H](CN(C)C)Oc2ccc(NC(=O)Nc3ccc(F)cc3)cc2CC1=O
→ .	3	-3	0.1	.	.	i	.	-0.8
CN(C)c1ccc(P(=O)(Nc2ccc([N+](=O)[O-])cc2)N2CCOCC2)c(NC(=O)c2cccs2)c1 (stereo not drawn)
→ -4	12	17	1.9	-0.3	.	i	0.65	-1.6
CCOc1ccc(NC(=O)CCC(=O)N/N=C/c2ccc3c(c2)OCO3)cc1
→ -4	9	6	-0.7	-0.8	4%	i	.	-0.2
Cc1cccc(NC(=O)CCN2CCCCC2)c1
→ -31	8	7	-1.0	-0.1	-11%	i	0.65	-14
CCCCN(CCCC)NC(=O)c1ccccc1
→ -6	8	5	-9.7	4.1	-3%	i	0.64	0.2
Cc1ccccc1NC(=O)CN1C(=O)N/C(=C\c2ccc(N3CCOCC3)c(F)c2)C1=O
→ -2	4	13	0.5	4.6	9%	i	.	-1.6
CC(NC(=O)CN1CCN(c2ccccc2F)CC1)c1ccccc1 (stereo not drawn)
→ 4	-7	-5	-2.1	-1.7	9%	i	0.7	-4.5
C[C@H](CO)N1C[C@H](C)[C@H](CN(C)Cc2ccccc2)Oc2ccc(NC(=O)Nc3cccc4ccccc34)cc2CC1=O
→ .	-3	-7	8.3	.	.	i	.	2.6
CCOc1ccc(NC(=O)/C(C#N)=C/c2ccc(N3CCCC3)c(C)c2)cc1
→ 25	.	.	.	74	.	.	0.7	.
COc1ccc(/C=C(/NC(=O)/C=C/c2ccccc2)C(=O)NCCCCCC(=O)O)cc1
→ 3	18	15	4.5	4.2	-8%	i	0.7	-3.3
COc1ccccc1N1CCN(C2CCCN(C(=O)c3ccsc3)C2)CC1 (stereo not drawn)
→ 0	7	7	2.2	0.1	.	i	0.7	-1.2
COc1ccc(CNC(=O)CN(Cc2ccccc2)S(=O)(=O)c2ccc(Cl)cc2)cc1
→ -2	.	.	.	-2.5	2%	.	0.72	.
O=C(NCC(c1cccnc1)N1CCN(c2ccc(F)cc2)CC1)OCc1ccccc1 (stereo not drawn)
→ 64	.	.	.	-1.4	6%	.	0.72	.
CCn1ncc(Br)c1C(=O)Nc1cc(C)cc(C)c1
→ 1	.	.	.	1.7	-7%	.	0.66	.
COc1ccc(-n2nc(C(=O)c3cccs3)cc(-c3nc4ccccc4[nH]3)c2=N)cc1
→ .	.	.	.	5.8	?	.	0.68	.
CCOc1ccc(NC(=O)CN(C)C(=O)c2cn3ccccc3n2)cc1OCC
→ -3	1	11	0.4	-1.5	4%	i	0.69	6.6
COc1ccc2nc3oc(C(=O)NCCCOC(C)C)cc3cc2c1
→ 2	-4	5	-3.9	-2.5	-8%	i	0.68	-3.0
COc1ccc(S(=O)(=O)N(C)C[C@@H]2OCCCC[C@@H](C)Oc3ccc(NS(C)(=O)=O)cc3C(=O)N([C@@H](C)CO)C[C@@H]2C)cc1
→ .	-1	0	0.3	.	.	i	.	-0.4
Cc1noc(C)c1NC(=O)Nc1cccc2c1O[C@H](CN(C)Cc1ccc(Oc3ccccc3)cc1)[C@@H](C)CN([C@@H](C)CO)C2=O
→ .	-4	-15	3.9	.	.	i	.	7.0
Cc1nnc(SCCc2ccccc2)[nH]c1=O
→ -12	.	.	.	-0.6	2%	.	0.71	.
CCOC(=O)CC1=CSC2=NS(=O)(=O)CCN12
→ -3	.	.	.	-0.8	-1%	.	0.7	.
CN(C)C(=O)C[C@@H]1C[C@@H]2c3cc(NC(=O)NC4CCCCC4)ccc3O[C@@H]2[C@@H](CO)O1
→ .	-1	0	-1.2	.	.	i	.	-1.6
CCNC(=O)C1(C)CCCN(Cc2noc(-c3ccccc3OC)n2)C1 (stereo not drawn)
→ .	-4	2	0.1	-1.7	.	i	.	-0.4
COCCN(C(=O)Cn1nnc2ccccc21)C(C(=O)NC1CCCCC1)c1ccc(OC)cc1OC (stereo not drawn)
→ -1	.	.	.	-3.2	?	.	0.64	.
CN(Cc1ccc(Cl)cc1Cl)C(=O)CNC(=O)c1ccc2c(c1)OCO2
→ 10	-8	-23	0.1	2.5	0%	i	0.67	-10
C[C@H](CO)N1C[C@H](C)[C@H](CN(C)C(=O)Nc2ccc(F)cc2)Oc2ccc(NC(=O)CCCCCC(=O)Nc3ccccc3N)cc2C1=O
→ .	-1	2	1.5	.	.	i	.	0.4
Cc1[nH]c2ccc(C(C)C)cc2c1CC(=O)O
→ -13	16	16	1.3	3.5	27%	i	0.64	0.0
Cc1[nH]c(=O)sc1C(=O)NCc1ccc([N+](=O)[O-])cc1
→ .	8	-6	-5.5	-0.8	.	i	.	-5.9
C[C@H]1CN([C@@H](C)CO)C(=O)c2cc(NC(=O)CCN3CCOCC3)ccc2O[C@@H]1CN(C)Cc1ccc(Oc2ccccc2)cc1
→ .	-1	-1	0.3	.	.	i	.	11
O=C(c1ccc2c(c1)OCO2)N1CCN(S(=O)(=O)N2CCCCC2)CC1
→ -6	7	5	1.3	-2.0	.	i	0.7	1.3
CCOc1ccc(N2CC(C(=O)N3CCc4ccccc4C3)CC2=O)cc1 (stereo not drawn)
→ -8	.	.	.	-0.7	3%	.	0.73	.
O=C(N[C@H]1CC[C@H](CC(=O)N2CCc3ccccc3C2)O[C@H]1CO)C1CCOCC1
→ .	0	8	-1.5	.	.	i	.	-25
CCN(CCNC(=O)C1CCC(=O)N1Cc1ccc(C)cc1)c1ccccc1 (stereo not drawn)
→ .	4	2	4.5	3.3	3%	i	0.67	9.1
CCOc1ccc(NC(=O)CN(C)C(=O)COc2cccc(CC)c2)cc1OCC
→ -15	-10	-7	2.3	4.0	-6%	i	0.69	-17
Cn1cccc1C(=O)NC(=O)COC(=O)c1ccc(O)cc1
→ -8	.	.	.	-4.3	-13%	.	0.7	.
O=S(=O)(c1ccccc1)N1CCN(c2cccc(Cl)c2)CC1
→ -4	-23	-26	-0.4	-0.4	-4%	i	0.69	-13
CCn1c(=O)c2cc(C(=O)NCCC(C)C)sc2c2ccccc21
→ -26	2	6	-2.7	2.3	-1%	i	0.67	-23
CC1(c2nnc(Cc3ccccc3)o2)CC(c2cccc([N+](=O)[O-])c2)=NO1 (stereo not drawn)
→ 4	4	13	13	3.2	.	i	0.65	0.1
COc1ccc(S(=O)(=O)NCCC(=O)N2CCCC2)cc1N(C)S(C)(=O)=O
→ -2	7	10	2.1	-3.5	.	i	0.69	-2.9
O=C(NCc1ccco1)C1Cc2c(-c3cccc(F)c3)ccnc2O1 (stereo not drawn)
→ .	-4	-16	-0.8	-0.7	.	i	.	-0.4
Nc1[nH]n2c(=O)c3c(nc2c1N=Nc1ccccc1)CCCC3
→ 7	.	.	.	-1.2	26%	.	0.77	.
COc1ccc(C(C)C)cc1S(=O)(=O)NCC1CCCO1 (stereo not drawn)
→ -2	-1	6	-0.8	0.7	.	i	0.72	-4.1
CCOC(=O)C1CCCN(CC(=O)NC2=Nc3ccccc3N=C(C)C2c2ccccc2)C1 (stereo not drawn)
→ .	.	.	.	1.8	0%	.	0.71	.
COc1ccc(OC)c(Nc2c3c(nc4ccccc24)CCC3)c1
→ 98*	7	-9	-0.2	5.8	-10%	i	0.68	-3.8
COC(=O)CN(c1cccc(OC)c1)S(C)(=O)=O
→ -14	.	.	.	3.3	10%	.	0.68	.
COCCNC(=O)c1ccc(-n2c(SCc3cccnc3)nc3ccccc3c2=O)cc1
→ -2	4	-5	9.4	-2.1	18%	i	0.73	-1.2
C[C@@H]1CN([C@@H](C)CO)C(=O)c2cc(NC(=O)NC3CCCCC3)ccc2O[C@@H](C)CCCCO[C@@H]1CN(C)C(=O)CCCN(C)C
→ .	2	-2	-2.3	.	.	i	.	-4.0
COc1cc(Cl)ccc1OCc1cc(C(=O)NCC(C)c2ccccc2)no1 (stereo not drawn)
→ -3	-4	-20	-12	1.5	.	i	0.68	-11
O=C(COC(=O)c1ccc(NS(=O)(=O)c2ccc3c(c2)OCCO3)cc1)NC1CCS(=O)(=O)C1 (stereo not drawn)
→ -7	10	6	-1.8	-4.2	28%	i	0.65	-0.9
Cc1ccc(-c2csc(NC(=O)c3cccc(S(=O)(=O)N4CCN(C)CC4)c3)n2)cc1
→ 14	.	.	.	-0.8	-18%	.	0.71	.
COc1ccccc1C1CCN(C(=S)Nc2ccc(Br)cc2)CC1
→ -26	-37*	-24*	-10*	-1.7	1%	i	0.69	0.4
CC1(C)CC(=O)C=C(c2cccc3c2Oc2ccccc2S3)C1
→ -4	-8	-5	-3.7	-2.5	.	i	0.62	5.6
COCCOC(=O)c1c(C)oc2ccc(OS(C)(=O)=O)cc12
→ -1	-11	-19	-0.3	-4.6	4%	i	0.65	-0.7
CCCNCc1cc(OC)c(OCCC)cc1Cl
→ -20	.	.	.	4.8	15%	.	0.66	.
COC(=O)Cc1ccc(NC(=S)NCCCO)cc1
→ -3	.	.	.	0.8	2%	.	0.67	.
C[C@H](CO)N1C[C@H](C)[C@@H](CN(C)S(=O)(=O)c2cn(C)cn2)Oc2cc(C#Cc3ccc(F)cc3)ccc2S1(=O)=O
→ .	-1	-10	5.1	.	.	i	.	-0.7
CCC(c1nc2ccccc2[nH]1)N(CCCn1ccnc1)C(=O)c1ccc(C(F)(F)F)cc1 (stereo not drawn)
→ .	-9	12	1.5	-2.5	.	i	.	2.9
O=C(N/N=C\c1ccc(OCC(=O)N2CCCC2)cc1)C(=O)Nc1ccccc1F
→ -2	4	7	-0.5	3.3	9%	i	.	0.6
Cc1nn(-c2ccccc2Cl)c2sc(C(=O)Nc3nnc(C4CC4)s3)cc12
→ -10	8	6	5.6	0.8	-4%	i	.	-0.5
CSc1ccc(CN(C)C(=O)c2cccc(S(=O)(=O)NCc3ccccc3)c2)cc1
→ -5	-33	-37	-5.7	7.1	0%	i	0.73	9.5

(list continues)
Results follow in this order: ALR inh	rRNA inh HTS	rRNA inh HTS OD600	rRNA inh HTS RFP	HNF4A DNA FP	Vif TR-FRET	FGF22 binding	Ecoli growth	AF4-AF9 inh
COc1ccc(Br)c(C(=O)OCc2cc(=O)oc3cc(C)ccc23)c1
→ 15	5	9	-1.9	1.9	.	i	0.68	0.3
CN(C)c1ccc2c(c1)[C@H]1C[C@@H](CC(=O)N3CCc4ccccc4C3)O[C@@H](CO)[C@H]1O2
→ .	5	9	4.4	.	.	i	.	6.2
C[C@H](CO)N1C[C@H](C)[C@@H](CN(C)Cc2ccc3c(c2)OCO3)OCCCC[C@H](C)Oc2ccc(NC(=O)C3CCCCC3)cc2C1=O
→ .	-2	-12	-0.4	.	.	i	.	-2.3
CN1CCN(C2=NCCO2)CC1
→ -5	6	16	0.3	1.1	8%	i	0.68	-1.2
